Cruzain inh noDet = inhibitors of Trypanosoma cruzi cruzain without detergent. Potency, µM, without a hit: max response, negative = inhibition, usual class: inhibitors. AID 1476. purified cruzain, Z-FR-AMC fluorescence, no detergent. 2.3% of 200,000 active. P25779;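 also: plate controls were enzyme without inhibitor for no effect and buffer without enzyme for full effect; nearly all actives have a fitted effect of over 40% in size; top concentration of the series not given in the record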
Target sequence (P25779 123-467 limits assumed): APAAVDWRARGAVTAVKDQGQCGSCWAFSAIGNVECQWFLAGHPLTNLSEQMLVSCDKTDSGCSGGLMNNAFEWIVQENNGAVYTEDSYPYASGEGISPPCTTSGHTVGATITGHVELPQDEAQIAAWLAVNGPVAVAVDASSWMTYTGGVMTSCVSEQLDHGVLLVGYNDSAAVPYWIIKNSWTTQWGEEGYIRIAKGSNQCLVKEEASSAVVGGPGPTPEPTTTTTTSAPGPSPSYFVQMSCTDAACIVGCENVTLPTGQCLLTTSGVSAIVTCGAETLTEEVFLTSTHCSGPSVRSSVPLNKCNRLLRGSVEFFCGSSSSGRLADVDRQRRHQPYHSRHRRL
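Purified cruzain at 1.5 nM, pre-incubated 15 min with compound at room temperature in 100 mM sodium acetate pH 5.5, 5 mM DTT, 0.00005% Triton X-100. Reaction started with 2 uM Z-FR-AMC; AMC fluorescence increase over 60 s gives rate.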
Cruzain inh Det = cruzain (T. cruzi) inhibition with detergent; Potency, µM, inactives show max response, negative = inhibition, most hits filed as inhibitors; 0.43% of 200,000 active; purified cruzain, Z-FR-AMC fluorescence, 0.01% Triton; P25779;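 also: plate controls were neutral wells for no effect and buffer without enzyme for full effect; nearly all actives have a fitted effect of over 40% in size; top concentration of the series not given in the record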
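15 min RT preincubation of 1.5 nM cruzain with compound, then 2 uM Z-FR-AMC added; kinetic AMC fluorescence, 60 s delta. Triton X-100 0.01%, pH 5.5.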
NS1 function inh = blocks influenza NS1 protein function; S. cerevisiae slowed by influenza A NS1, growth recovery by OD600; Potency, µM (series often up to 46.1 µM), without a hit: at the top dose activity, positive = more growth; 0.4% of 270,000 active; active means well fitted rising curve with a large enough effect; inconclusive means small, poorly fitted or top-dose-only effect; inactive means no such curve, though single readings can be large or run the other way; also: nearly all actives have a fitted effect of over 50% in size
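Growth recovery, yeast-based: influenza A NS1 expressed in S. cerevisiae causes slow growth, and suppressors are detected by OD600. The parent strain without NS1 is used as positive control.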
SARS PLpro yeast = SARS-CoV PLP inhibition in yeast. Potency, µM (doses to about 32.9 µM), for inactives: top-dose activity, positive = growth rescue. 0.19% of 330,000 active. S. cerevisiae expressing SARS-CoV PLpro, growth rescue; control for the full effect not named in the record; active means well fitted rising curve with a large enough effect; inconclusive means small, poorly fitted or top-dose-only effect; inactive means no such curve, though single readings can be large or run the other way; also: 0% is about no effect; nearly all actives have a fitted effect of over 55% in size; growth read by luminescence after 48 h
RE007 growth inh = less growth of the S. pombe RE007 Vpr strain | S. pombe RE007 Vpr strain, BacTiter-Glo ATP luminescence, 24 h; control for the full effect not named in the record | Potency, µM (doses to about 92.2 µM), for inactives: at the top dose activity change, negative = less growth | 0.21% of 360,000 active; active = well fitted falling curve with a large enough effect; inconclusive = small, poorly fitted or top-dose-only effect; inactive = no such curve, though single readings can be large or run the other way;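 also: % is scaled to controls: 0 for no effect and ±100 for the full control effect; nearly all actives have a fitted effect of over 50% in size; the assay follows cell death caused by Vpr and the record does not say whether a fall means rescue or toxicity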
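Fission yeast strain RE007, carrying one chromosomally integrated HIV-1 vpr copy, was seeded at OD 0.01 in PMG+AL medium with 23 nL pinned compound. After 24 h at 30 °C and 99% humidity, viability was read by BacTiter-Glo luminescence.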
Lassa entry inh = blocks Lassa virus binding to or entry into cells. 1.2% of 300,000 active. Potency, µM (titrated, usually from 37.9 µM), inactives show top-dose activity change, negative = inhibition, usual class: inhibitors. Lassa virus pseudotype entry inhibition, cell reporter; control for the full effect not named in the record; active means well fitted inhibition curve with a large enough effect; inconclusive means small, poorly fitted or top-dose-only effect, or effect the other way; inactive means flat fitted curve, though single readings scatter; tested in HEK293 cells; also: % is scaled to controls: 0 for no effect and ±100 for the full control effect; nearly all actives have a fitted effect of over 50% in size; luciferase read-out
2A StopGo = FMDV 2A StopGo reporter, luciferase signal; Potency, µM (titrated, usually from 57.9 µM), without a hit: at the top dose signal change, negative = less light; 1.2% of 410,000 active; AID 1159524; human cells with a luciferase reporter of 2A StopGo recoding; control for the full effect not named in the record; active = well fitted falling curve with a large enough effect; inconclusive = small, poorly fitted or top-dose-only effect; inactive = no such curve, though single readings can be large or run the other way; tested in HEK293T cells; also: % is scaled to controls: 0 for no effect and ±100 for the full control effect; nearly all actives have a fitted effect of over 45% in size; luciferase light after 4 h
Marburg entry inh = blocks Marburg virus binding to or entry into cells | Marburg virus pseudotyped entry inhibition, cell reporter; control for the full effect not named in the record; about a third of the inactives were read at about 46 µM | Potency, µM (titrated, usually from 37.8 µM), for the others: at the highest dose activity change, negative = inhibition, usual class: inhibitors | 1.8% of 300,000 active | AID 540276; active = well fitted inhibition curve with a large enough effect; inconclusive = small, poorly fitted or top-dose-only effect, or effect the other way; inactive = flat fitted curve, though single readings scatter; tested in HEK293 cells; about a fifth of its hits are not listed in these tables; also: % is scaled to controls: 0 for no effect and ±100 for the full control effect; luciferase read-out
The depositor's hits bear a star; ? = inconclusive; . = not tested or not shown; [ ] = dose if it differs, or a comment. Unless noted, calls follow the shape of the dose curve; as a rule, active = well fitted curve in the direction sought with a large enough effect; inconclusive = small, poorly fitted or top-dose-only effect, or another doubt; inactive = no such curve, though single readings can be large; an effect the other way counts as inactive or inconclusive. Potency is read from the fitted curve at half-maximal effect.

1) CC1=CCC2([N+](=O)[O-])CN(CC(=O)O)CC1([N+](=O)[O-])C2 (configuration not stated)
2) Cc1cc(C)cc(NS(=O)(=O)c2ccc(-n3cccn3)cc2)c1
3) COc1ccc(CN(C(=O)c2ccc3c(c2)OCCO3)C(C(=O)NC2CCCCC2)c2ccc3ncccc3c2)cc1 (configuration not stated)
4) COc1cc(CCCN2C(=O)C(=O)NC[C@@H]2C(C)O)cc(OC)c1OC (some centres not stated)
5) CCCNc1nc(OCC(F)(F)F)nc(OCC(F)(F)F)n1
6) CCCS(=O)(=O)n1nc(-c2ccccc2)cc1N
7) Cc1ccc(-c2csc(NC(=S)NC(=O)c3cccs3)n2)cc1
8) CCOC(=O)CN(C(=O)CNC(=O)c1cccs1)C(C(=O)NC1CCCCC1)c1cccnc1 (configuration not stated)

assay / compound | 1 | 2 | 3 | 4 | 5 | 6 | 7 | 8
Cruzain inh noDet | -4% | 3% | 17% | . | -5% | -1% | 16µM* | 3%
Cruzain inh Det | -0.4% | -13% | 3.5% | . | 4.0% | 1.2% | -3.1% | -3.0%
NS1 function inh | 1% | . | 20% | 3% | 2% | 1% | -1% | 0%
SARS PLpro yeast | 3% | . | 1% | -1% | 9% | 7% | 11% | -8%
RE007 growth inh | 2% | . | -11% | 6% | 4% | -10% | 20% | -1%
Lassa entry inh | 2% | -10%[46.1 µM] | 6% | . | 17% | . | 2% | 15%
2A StopGo | -13% | 29% | . | -12% | . | 14% | -5% | -8%
Marburg entry inh | 7% | . | -12% | . | 0% | . | 12% | 8%

9) O=C(CN(Cc1ccc(F)cc1)C(=O)c1csnn1)NC1CCCC1
10) CN1CCN(C(=O)CCc2nc3ccccc3c(=O)[nH]2)CC1
11) CC(C)Cn1c(SC(C)C(=O)Nc2ccc(N3CCOCC3)cc2)nc2ccccc21 (configuration not stated)
12) C#CCOc1ccc(-c2nnc(Nc3cccc(C)c3)c3ccccc23)cc1
13) Cc1ccc(OCCC(=O)N(CCC(C)C)c2c(N)n(Cc3ccccc3)c(=O)[nH]c2=O)cc1
14) CCS(=O)(=O)c1ncc(N(Cc2cccc(F)c2)Cc2ccco2)c(C(=O)Nc2ccccc2Cl)n1
15) CC(=O)c1ccc(NC(=O)C(C)OC(=O)CCN=C2NS(=O)(=O)c3ccccc32)cc1 (configuration not stated)
16) O=C(Nc1ccc2c(c1)CCC2)Nc1ccccc1Cl

assay / compound | 9 | 10 | 11 | 12 | 13 | 14 | 15 | 16
Cruzain inh noDet | . | -6% | 18% | -3% | . | 12% | . | .
Cruzain inh Det | . | 2.3% | -6.0% | -7.1% | . | -0.9% | . | .
NS1 function inh | -8% | 6% | 7% | . | . | . | . | -13%
SARS PLpro yeast | 14% | 7% | 1% | . | -1% | . | 2% | -2%
RE007 growth inh | -5% | -4% | -3% | . | -30% | . | -8% | -10%
Lassa entry inh | -18%[46.1 µM] | 0% | . | ? | ? | 6%[46.1 µM] | 1% | ?
2A StopGo | -5% | -12% | -2% | ? | -19% | -8% | -16% | 23%
Marburg entry inh | ? | -16% | 0% | ? | -20% | -19%[46.1 µM] | 20% | ?

17) COC(=O)c1ccccc1NC(=O)CCCCCn1nnc2ccccc2c1=O
18) O=C1CC(C(=O)O)C2(CCCC2)O1 (configuration not stated)
19) CN(CC(=O)NC1CCCCC1)S(=O)(=O)c1ccc2c(c1)c(=O)n(C)c(=O)n2C
20) CC(=O)c1c(C)[nH]c(C(=O)Nc2nccs2)c1C
21) CCOC(=O)c1ccc(NC(=O)CN(C)S(=O)(=O)c2ccc(OC)cc2)cc1
22) CC(C)CCNC(=O)C1CC(c2ccc(C(F)(F)F)cc2)=NO1 (configuration not stated)
23) CCN(CC)C(=O)N[C@H]1C[C@@H]2c3cccc4[nH]cc(c34)C[C@H]2N(C)C1
24) Cc1ccc(-c2cc(C(=O)Nc3c(C(=O)c4ccccc4)oc4ccccc34)no2)cc1F

assay / compound | 17 | 18 | 19 | 20 | 21 | 22 | 23 | 24
Cruzain inh noDet | . | . | . | . | 0% | . | -10% | -4%
Cruzain inh Det | . | . | . | . | 3.2% | . | 0.6% | -2.4%
NS1 function inh | -16% | . | 5% | . | -4% | 0% | -16% | .
SARS PLpro yeast | 2% | . | 22% | -1% | 1% | -1% | -1% | .
RE007 growth inh | 29% | 4% | 6% | 2% | -5% | -14% | 22% | .
Lassa entry inh | . | 1% | . | ? | ? | . | -1% | -9%[46.1 µM]
2A StopGo | -14% | -10% | 8% | 53%[activator] | -14% | 1% | -19% | -19%
Marburg entry inh | . | 1% | . | ? | 1% | . | -30% | ?

25) Cc1csc(NC(=O)CN2CCCCCC2)n1
26) COc1ccc(NC(=O)CCNC(=O)c2ccco2)cc1S(=O)(=O)N(C)C
27) Cc1ccc(C)c(N2CCN(C(=O)CCCCCn3c(=S)[nH]c4ccc(N5CCOCC5)cc4c3=O)CC2)c1
28) COc1ccc(S(=O)(=O)N(CCc2ccccc2)CC(=O)Nc2ccc(C)c(C)c2)cc1OC
29) CNC(=S)N/N=C1\C2CN3CCN(C2)CC1(c1ccccc1)C3
30) Clc1nc(NCCc2ccccc2)c2cn[nH]c2n1
31) Cc1cnc(C(=O)Nc2ccc(N3CCCCC3)cc2)cn1
32) CNC(=O)N/N=C(\N)c1ccccn1

assay / compound | 25 | 26 | 27 | 28 | 29 | 30 | 31 | 32
Cruzain inh noDet | 0% | . | . | ? | 1% | . | . | .
Cruzain inh Det | 9.1% | . | . | -5.9% | -1.2% | . | . | .
NS1 function inh | -17% | 5% | 15% | . | 1% | . | . | 1%
SARS PLpro yeast | -6% | 0% | 0% | . | -8% | . | -2% | 0%
RE007 growth inh | 8% | ? | 7% | . | 6% | -2% | -16% | 1%
Lassa entry inh | 1% | . | . | ? | 5% | ? | ? | .
2A StopGo | 0% | 2% | 3.2µM* | -27% | -17% | ? | -19% | 47%[activator]
Marburg entry inh | 25% | -3%[46.1 µM] | . | . | -7% | ? | ? | .

33) COc1cccc(C(=O)NCC2CCCO2)c1 (configuration not stated)
34) CC12CCC(C(=NO)C1=O)C2(C)C (configuration not stated)
35) Cc1cc(C)n(-c2ccc(NN=C(C#N)C#N)cc2)n1
36) CC1(C)CC(=O)C(C=Nc2ccc3c(c2)OCO3)=C(O)C1
37) Cc1nn(-c2ccccc2)c(C)c1[N+](=O)[O-]
38) CC(C)C(=O)Nc1cccc(C(=O)NCCc2ccc(S(N)(=O)=O)cc2)c1
39) COc1cccc(NC(=O)COC(=O)CCCC2=NS(=O)(=O)c3ccccc3N2)c1
40) Fc1ccccc1CCNCc1cccc(Cl)c1Cl

assay / compound | 33 | 34 | 35 | 36 | 37 | 38 | 39 | 40
Cruzain inh noDet | -8% | . | . | -11% | . | 3% | . | 0%
Cruzain inh Det | 3.6% | . | . | -1.6% | . | 1.7% | . | 1.5%
NS1 function inh | 15% | . | -72% | 3% | . | -1% | -8% | -21%
SARS PLpro yeast | 1% | . | -6% | 0% | 2% | 0% | -7% | 10%
RE007 growth inh | . | -11% | -8% | -23% | 12% | -17% | 2% | -22%
Lassa entry inh | . | -12% | . | -19% | -11%[46.1 µM] | 2% | ? | 15%
2A StopGo | . | 0% | ? | 60%[activator] | -17% | -1% | 8% | .
Marburg entry inh | 1% | 1% | . | 2% | 15%[46.1 µM] | 0% | -1%[46.1 µM] | 2%

One compound at a time, as listed above. Order of values: Cruzain inh noDet	Cruzain inh Det	NS1 function inh	SARS PLpro yeast	RE007 growth inh	Lassa entry inh	2A StopGo	Marburg entry inh
Results for COc1cccc(C(=O)NCC2CCCO2)c1 (configuration not stated) : -8%	3.6%	15%	1%	.	.	.	1%
Results for Cc1cc(C)n(-c2ccc(NN=C(C#N)C#N)cc2)n1 : .	.	-72%	-6%	-8%	.	?	.
Results for Cc1nn(-c2ccccc2)c(C)c1[N+](=O)[O-] : .	.	.	2%	12%	-11%[46.1 µM]	-17%	15%[46.1 µM]
Results for COc1cccc(NC(=O)COC(=O)CCCC2=NS(=O)(=O)c3ccccc3N2)c1 : .	.	-8%	-7%	2%	?	8%	-1%[46.1 µM]
Results for CC12CCC(C(=NO)C1=O)C2(C)C (configuration not stated) : .	.	.	.	-11%	-12%	0%	1%

Next section.
41) COc1ccc(NC(=O)COC(=O)CCSc2ccccc2)cc1
42) CCn1cc([N+](=O)[O-])c(C(=O)N2CCCCCC2)n1
43) Cc1ccccc1Nc1nnc(SCC(=O)NC(=O)Nc2ccc3c(c2)OCCO3)s1
44) CCOc1ccc(NC(=O)Cn2c(=O)c(CNc3ccccc3)cc3cc4c(cc32)OCCO4)cc1
45) Cc1ccc2nc(SCC(=O)Nc3ccc(C)c(Cl)c3)nc(=O)n2c1
46) O=C(O)c1ccccc1-c1ccc(/C=C2\SC(=O)N(c3ccccc3)C2=O)o1
47) COc1ccc(C2CC(c3cccs3)=NN2C(=O)CN2CCCCC2)cc1 (configuration not stated)
48) COc1ccc(/C(N)=N/OC(=O)N2CCOCC2)cc1
49) Cc1ccc(-n2c(-c3ccccc3)cc(=O)nc2C)cc1

assay / compound | 41 | 42 | 43 | 44 | 45 | 46 | 47 | 48 | 49
Cruzain inh noDet | . | . | ? | -23% | . | . | . | . | -4%
Cruzain inh Det | . | . | -3.9% | -3.6% | . | . | . | . | 3.3%
NS1 function inh | . | 2% | 15% | . | . | 12% | . | 1% | 1%
SARS PLpro yeast | -1% | 5% | -12% | . | 3% | -6% | 0% | 0% | ?
RE007 growth inh | 1% | -9% | . | . | 24% | 1% | 2% | -7% | 1%
Lassa entry inh | 23% | . | 21% | -6%[46.1 µM] | 15% | . | 3% | ? | ?
2A StopGo | 14% | 4% | . | 22% | 29% | 93%[activator] | 45%[activator] | -8% | .
Marburg entry inh | ? | . | 39% | . | 6% | . | -5%[46.1 µM] | ? | 6%

High-throughput results as filed in PubChem BioAssay.
